Source: PubChem
HIV Env fusion: inhibitors of HIV Env-mediated cell fusion. HeLa-JRFL Env/CEM21 cell fusion, luciferase. inhibition, % at 12.3 µM. hit rate 1.1% among 360,000. AID 651610;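 active = mean replicate inhibition score of at least 50 and every replicate individually at or above 50; inconclusive = only one of the two criteria met; inactive = mean below 50 and not all replicates reaching 50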;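 also: 0% = plate neutral controls and 100% = maraviroc near 300 nM; one replicate is shown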
Yeast UUG start: modulators of start codon recognition fidelity in yeast; AID 602363; activity score, % at 18.7 µM; hit rate 0.13% among 350,000; S. cerevisiae UUG-firefly luciferase reporter, luminescence/redox ratio;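 active = replicate mean at a twofold rise or more, about +100% in these data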;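 also: firefly luciferase made from a UUG start codon reports start codon fidelity; reporter light over untreated wells divided by growth signal over untreated wells; some hits fall short of that in this replicate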
Starred values were filed as active, the others as inactive; ? = inconclusive; & = joins results of further samples; [ ] = dose if it differs, or a comment. These rows are one share of the data; the hit share may differ from the screen's.

SMILES	HIV Env fusion	Yeast UUG start
C[C@H]1CN([C@@H](C)CO)C(=O)Cc2cc(NC(=O)C3CCCCC3)ccc2O[C@H]1CN(C)S(=O)(=O)c1cccs1	?	10
C[C@@H]1CCCCO[C@H](CN(C)Cc2ccc(Cl)c(Cl)c2)[C@H](C)CN([C@@H](C)CO)C(=O)c2cc(NS(=O)(=O)c3ccc(Cl)cc3)ccc2O1	20[16.7 µM]	13
COCC(=O)Nc1ccc2c(c1)C(=O)N(C)[C@@H]1CC[C@@H](CC(=O)OC)O[C@H]1CO2	-6[16.7 µM]	-6
CC(C)CC#Cc1cnc2c(c1)C(=O)N([C@H](C)CO)C[C@H](C)[C@H](CN(C)Cc1ccccc1C(=O)O)O2	-5[16.7 µM]	12
COCC#Cc1cnc2c(c1)C(=O)N([C@@H](C)CO)C[C@@H](C)[C@@H](CN(C)C(=O)C1CCCCC1)O2	-16[16.7 µM]	15
COCCOC(=O)N1C(=O)[C@@]2(c3cc(C#Cc4ccc(OC)cc4)ccc31)[C@H](c1ccccc1OCCO)N1[C@H](c3ccccc3)[C@H](c3ccccc3)OC(=O)[C@H]1[C@@H]2C(=O)N1CCN(c2ncccn2)CC1	13[16.7 µM]	-9
COc1cccc(C#Cc2cnc3c(c2)C(=O)N([C@@H](C)CO)C[C@@H](C)[C@H](CN(C)C(=O)C2CC2)O3)c1	1[16.7 µM]	12
COc1ccc(NC(=O)N(C)C[C@H]2OCCCC[C@@H](C)Oc3ccc(NC(=O)NC4CCCCC4)cc3C(=O)N([C@H](C)CO)C[C@@H]2C)cc1	-100[16.7 µM]	11
CS(=O)(=O)Nc1ccc2c(c1)[C@@H]1C[C@@H](CC(=O)NCc3ccncc3)O[C@@H](CO)[C@@H]1O2	-10[16.7 µM]	-14
Cc1ccccc1S(=O)(=O)N1[C@H](C#N)[C@H](c2ccccc2)[C@@H]1CO	13[16.7 µM]	-2
C[C@H](CO)N1C[C@H](C)[C@H](CN(C)CC2CCCCC2)Oc2ccc(NS(=O)(=O)c3cccs3)cc2CC1=O	-6[16.7 µM]	-6
C[C@H](CO)N1C[C@H](C)[C@H](CN(C)S(C)(=O)=O)Oc2ncc(C#Cc3ccc(F)cc3)cc2C1=O	1&2[16.7 µM]	-11&-5
CC(C)CC#Cc1ccc2c(c1)O[C@H](CN(C)Cc1cncnc1)[C@H](C)CN([C@@H](C)CO)S2(=O)=O	-13[16.7 µM]	3
CO[C@@H]1CN(C)C(=O)c2cc(NC(=O)Nc3c(C)noc3C)ccc2OC[C@H](C)NC[C@@H]1C	6[16.7 µM]	-11
C[C@@H]1CCCCO[C@H](CN(C)S(=O)(=O)c2ccccc2)[C@@H](C)CN([C@H](C)CO)C(=O)c2cc(N(C)C)ccc2O1	23[16.7 µM]	7
Cc1ccc(S(=O)(=O)Nc2ccc3c(c2)CC(=O)N([C@@H](C)CO)C[C@@H](C)[C@H](CN(C)Cc2ccc(C(=O)Nc4ccccc4N)cc2)O3)cc1	2[16.7 µM]	10
C[C@@H]1CCCCO[C@@H](CN(C)C)[C@@H](C)CN([C@H](C)CO)C(=O)c2cc(NC(=O)CCC(F)(F)F)ccc2O1	23[16.7 µM]	-7
CC(=O)N(C)C[C@@H]1Oc2cc(C#CC3CCCC3)ccc2S(=O)(=O)N([C@@H](C)CO)C[C@@H]1C	14[16.7 µM]	0
CNC(=O)C[C@H]1CC[C@@H]2[C@@H](COc3ccc(NC(=O)Nc4cccc(Cl)c4)cc3C(=O)N2C)O1	?	18
CO[C@H]1CN(C)C(=O)c2ccc(NC(=O)Nc3ccccc3)cc2OC[C@@H](C)N(CC2CC2)C[C@H]1C	8[16.7 µM]	9
C[C@H]1CN([C@@H](C)CO)S(=O)(=O)c2ccc(-c3ccc(C(=O)N(C)C)cc3)cc2O[C@@H]1CN(C)C(=O)C1CCCCC1	-6[16.7 µM]	12
Cc1noc(C)c1NC(=O)Nc1ccc2c(c1)C(=O)N([C@H](C)CO)C[C@H](C)[C@@H](CN(C)C(=O)Nc1c(C)noc1C)OCCCC[C@H](C)O2	-9[16.7 µM]	-3
CC(C)CC#Cc1cnc2c(c1)C(=O)N([C@H](C)CO)C[C@@H](C)[C@@H](CN(C)C(=O)c1cccnc1)O2	-21[16.7 µM]	16
C[C@H]1CN([C@@H](C)CO)C(=O)c2cc(C3=CCCCC3)cnc2O[C@H]1CN(C)C(=O)c1ccncc1	-14[16.7 µM]	8
C[C@H](CO)N1C[C@H](C)[C@H](CN(C)C(=O)Nc2ccc(C(F)(F)F)cc2)Oc2ccc(NC(=O)Cc3ccccc3)cc2CC1=O	39[16.7 µM]	-10
CNC(=O)C[C@H]1CC[C@@H]2[C@H](COc3ccc(NC(=O)Nc4ccccc4)cc3C(=O)N2C)O1	0[16.7 µM]	0
C[C@H](CO)N1C[C@H](C)[C@@H](CN(C)C(=O)c2ccccc2F)Oc2ncc(C#Cc3ccc(F)cc3)cc2C1=O	-21[16.7 µM]	-2
C[C@H](CO)N1C[C@H](C)[C@H](CN(C)C(=O)Nc2cccc3ccccc23)Oc2ccc(NC(=O)Nc3ccccc3)cc2C1=O	-11[16.7 µM]	12
C[C@@H]1CN([C@H](C)CO)C(=O)c2cccc(NC(=O)NC3CCCCC3)c2O[C@@H]1CN(C)Cc1ccc(Oc2ccccc2)cc1	-32[16.7 µM]	1
C[C@@H]1CN([C@H](C)CO)C(=O)c2cc(-c3ccccc3)cnc2O[C@@H]1CN(C)C(=O)Nc1ccccc1F	-26[16.7 µM]	-3

5 of the entries above in order of their number in Yeast UUG start, falling.
SMILES	HIV Env fusion	Yeast UUG start
C[C@H](CO)N1C[C@H](C)[C@H](CN(C)C(=O)Nc2cccc3ccccc23)Oc2ccc(NC(=O)Nc3ccccc3)cc2C1=O	-11[16.7 µM]	12
C[C@H]1CN([C@@H](C)CO)C(=O)c2cc(C3=CCCCC3)cnc2O[C@H]1CN(C)C(=O)c1ccncc1	-14[16.7 µM]	8
C[C@@H]1CN([C@H](C)CO)C(=O)c2cccc(NC(=O)NC3CCCCC3)c2O[C@@H]1CN(C)Cc1ccc(Oc2ccccc2)cc1	-32[16.7 µM]	1
CNC(=O)C[C@H]1CC[C@@H]2[C@H](COc3ccc(NC(=O)Nc4ccccc4)cc3C(=O)N2C)O1	0[16.7 µM]	0
C[C@H](CO)N1C[C@H](C)[C@@H](CN(C)C(=O)c2ccccc2F)Oc2ncc(C#Cc3ccc(F)cc3)cc2C1=O	-21[16.7 µM]	-2

Other entries follow:
SMILES	HIV Env fusion	Yeast UUG start
C[C@H]1CN([C@@H](C)CO)C(=O)Cc2cc(NC(=O)Nc3ccc(F)cc3)ccc2O[C@H]1CN(C)C(=O)Nc1cccc2ccccc12	7[16.7 µM]	6
Cc1ccc(S(=O)(=O)Nc2ccc3c(c2)CC(=O)N([C@@H](C)CO)C[C@@H](C)[C@H](CN(C)C(=O)Nc2ccc4c(c2)OCO4)O3)cc1	2[16.7 µM]	0
COc1cccc(CNC(=O)C[C@H]2C=C[C@H](NC(=O)C3CC3)[C@@H](CO)O2)c1	-9[16.7 µM]	-7
COc1cccc(NC(=O)Nc2ccc3c(c2)C(=O)N(C)C[C@H](OC)[C@@H](C)CN[C@@H](C)CO3)c1	0[16.7 µM]	-4
CCCC#Cc1cnc2c(c1)C(=O)N([C@@H](C)CO)C[C@H](C)[C@@H](CN(C)C(=O)C1CCOCC1)O2	-7[16.7 µM]	-8
CC(C)CC#Cc1ccc2c(c1)O[C@H](CN(C)C(=O)NC(C)C)[C@@H](C)CN([C@@H](C)CO)S2(=O)=O	11[16.7 µM]	7
COc1ccc(S(=O)(=O)Nc2cccc3c2O[C@H](CN(C)S(=O)(=O)c2ccc(C)cc2)[C@@H](C)CN([C@H](C)CO)C3=O)cc1	-51[16.7 µM]	-5
Cc1ccc(S(=O)(=O)N(C)C[C@@H]2Oc3cc(C#CC4CCCC4)ccc3S(=O)(=O)N([C@H](C)CO)C[C@@H]2C)cc1	22[16.7 µM]	-8
O=C(N[C@@H]1CC[C@@H](CCn2cc(C3(O)CCCC3)nn2)O[C@H]1CO)C1CCCC1	2[16.7 µM]	-7
COc1ccc(NC(=O)Nc2ccc3c(c2)C(=O)N([C@@H](C)CO)C[C@H](C)[C@@H](CN(C)C(=O)Nc2c(C)noc2C)OCCCC[C@H](C)O3)cc1	-13[16.7 µM]	-4
CC(C)CC#Cc1cnc2c(c1)C(=O)N([C@@H](C)CO)C[C@@H](C)[C@H](CN(C)C(=O)NC1CCCC1)O2	2[16.7 µM]	5
C[C@@H]1CCCCO[C@@H](CN(C)Cc2ccccc2)[C@H](C)CN([C@H](C)CO)C(=O)c2cc(NC(=O)Nc3cccc4ccccc34)ccc2O1	13[16.7 µM]	2
CCNC(=O)C[C@H]1CC[C@H]2[C@H](COc3ccc(NC(=O)Nc4ccc(C)cc4)cc3C(=O)N2C)O1	-8[16.7 µM]	2
CC(C)C#Cc1ccc2c(c1)O[C@@H](CN(C)Cc1cncnc1)[C@H](C)CN([C@H](C)CO)S2(=O)=O	14[16.7 µM]	13
O=C(Nc1ccc(Cl)cc1)N[C@@H]1CC[C@H](CCn2cc(-c3ccccc3F)nn2)O[C@H]1CO	21[16.7 µM]	-11
COCCNC(=O)C[C@@H]1CC[C@@H]2[C@H](COc3ccc(NC(=O)Nc4ccccc4)cc3C(=O)N2C)O1	-4[16.7 µM]	2
COc1ccc(NC(=O)N(C)C[C@@H]2Oc3ccc(NC(=O)Cc4cn(C)c5ccccc45)cc3CC(=O)N([C@@H](C)CO)C[C@@H]2C)cc1	11[16.7 µM]	-4
C[C@H](O)C#Cc1ccc2c(c1)O[C@@H](CN(C)Cc1ccccn1)[C@H](C)CN([C@H](C)CO)S2(=O)=O	12[16.7 µM]	-12
COc1ccc(CN(C)C[C@@H]2Oc3ccc(NC(=O)Nc4ccc(OC)cc4)cc3C(=O)N([C@@H](C)CO)C[C@@H]2C)cc1	-17[16.7 µM]	0
Cc1noc(C)c1NC(=O)N(C)C[C@H]1OCCCC[C@@H](C)Oc2ccc(NC(=O)c3ccccc3)cc2C(=O)N([C@H](C)CO)C[C@H]1C	5[16.7 µM]	15
COc1ccc(NC(=O)N[C@@H]2C=C[C@@H](CC(=O)NC3CCCCC3)O[C@H]2CO)cc1	-2[16.7 µM]	0
Cc1ccc(-c2cnc3c(c2)C(=O)N([C@@H](C)CO)C[C@H](C)[C@@H](CN(C)CC2CCOCC2)O3)cc1	-11[16.7 µM]	-8
C[C@H]1CCCCO[C@@H](CN(C)C(=O)c2ccccc2)[C@@H](C)CN([C@@H](C)CO)C(=O)c2cc(NC(=O)Nc3ccc(C(F)(F)F)cc3)ccc2O1	68*[16.7 µM]	-9
Cc1noc(C)c1NC(=O)Nc1ccc2c(c1)C(=O)N([C@H](C)CO)C[C@@H](C)[C@H](CN(C)C(=O)Nc1c(C)noc1C)O2	-10[16.7 µM]	8
C[C@@H]1CCCCO[C@H](CN(C)S(=O)(=O)c2ccc(Cl)cc2)[C@@H](C)CN([C@H](C)CO)C(=O)c2cc(NC(=O)Nc3cccc4ccccc34)ccc2O1	-6[16.7 µM]	10
Cc1ccc(S(=O)(=O)N(C)C[C@@H]2Oc3ccc(NC(=O)Cc4cn(C)c5ccccc45)cc3CC(=O)N([C@H](C)CO)C[C@H]2C)cc1	7[16.7 µM]	-14
C[C@H](CO)N1C[C@H](C)[C@H](CN(C)Cc2ccc(C(F)(F)F)cc2)OCCCC[C@H](C)Oc2ccc(NC(=O)Nc3ccccc3)cc2C1=O	73*[16.7 µM]	8
COc1ccc(NC(=O)N(C)C[C@H]2Oc3ccc(NS(=O)(=O)c4c(C)noc4C)cc3CC(=O)N([C@H](C)CO)C[C@H]2C)cc1	-14[16.7 µM]	15
C[C@@H]1CCCCO[C@@H](CN(C)S(=O)(=O)c2ccc(Cl)cc2)[C@H](C)CN([C@@H](C)CO)C(=O)c2cc(NS(=O)(=O)c3cn(C)cn3)ccc2O1	-3[16.7 µM]	3
C[C@H](CO)N1C[C@H](C)[C@@H](CN(C)C(=O)Nc2ccccc2)OCCCC[C@H](C)Oc2ccc(NS(=O)(=O)c3ccc(Cl)cc3)cc2C1=O	-3[16.7 µM]	-7

Complete entries from above:
C[C@@H]1CCCCO[C@@H](CN(C)S(=O)(=O)c2ccc(Cl)cc2)[C@H](C)CN([C@@H](C)CO)C(=O)c2cc(NS(=O)(=O)c3cn(C)cn3)ccc2O1 as listed: HIV Env fusion = -3[16.7 µM]; Yeast UUG start = 3
Cc1ccc(-c2cnc3c(c2)C(=O)N([C@@H](C)CO)C[C@H](C)[C@@H](CN(C)CC2CCOCC2)O3)cc1 as listed: HIV Env fusion = -11[16.7 µM]; Yeast UUG start = -8

(continued)
SMILES	HIV Env fusion	Yeast UUG start
COCC(=O)N(C)C[C@@H]1Oc2cc(C#CCC(C)C)ccc2S(=O)(=O)N([C@H](C)CO)C[C@@H]1C	10[16.7 µM]	-3
COc1ccc(NC(=O)N(C)C[C@@H]2OCCCC[C@H](C)Oc3ccc(NS(=O)(=O)c4ccc(OC)cc4)cc3C(=O)N([C@H](C)CO)C[C@@H]2C)cc1	-43[16.7 µM]	16
C[C@@H]1CN([C@H](C)CO)C(=O)c2cccc(NC(=O)Nc3ccc(F)cc3)c2O[C@H]1CN(C)C(=O)Nc1ccc2c(c1)OCO2	-5[16.7 µM]	-3
C[C@H](CO)N1C[C@H](C)[C@@H](CN(C)C(=O)Nc2ccc(F)cc2)Oc2c(NC(=O)NC3CCCCC3)cccc2C1=O	-24[16.7 µM]	-8
